Screening results deposited in PubChem by National Center for Advancing Translational Sciences (NCATS).
2A StopGo: High Throughput Screening for Foot and Mouth Disease Virus Antivirals. human cells with a luciferase reporter of 2A StopGo recoding; control for the full effect not named in the record. Potency, µM (series often up to 57.9 µM), for inactives: top-dose signal change, negative = less light. hit rate 1.2% among 410,000. AID 1159524, 2015; active = well fitted falling curve with a large enough effect; inconclusive = small, poorly fitted or top-dose-only effect; inactive = no such curve, though single readings can be large or run the other way; tested in HEK293T cells; further: nearly all actives have a fitted effect of over 45% in size; luciferase light after 4 h
RE007 growth inh: qHTS Assay for Inhibitors of the HIV-1 protein Vpr | S. pombe RE007 Vpr strain, BacTiter-Glo ATP luminescence, 24 h; control for the full effect not named in the record | hit rate 0.21% among 360,000 | AID 651644, 2012 | Potency, µM (series often up to 92.2 µM), for the others: at the top dose activity change, negative = less growth; active = well fitted falling curve with a large enough effect; inconclusive = small, poorly fitted or top-dose-only effect; inactive = no such curve, though single readings can be large or run the other way;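 further: nearly all actives have a fitted effect of over 50% in size; the assay follows cell death caused by Vpr and the record does not say whether a fall means rescue or toxicity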
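Fission yeast RE007 carrying one integrated HIV-1 vpr copy, seeded at OD 0.01 in PMG+AL medium with 23 nL pinned compound. Grown 24 h at 30 degrees; viability read by BacTiter-Glo luminescence after 5 min.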
* = called active by the depositor; ? = inconclusive; [ ] = remark or other dose. On the % scale 0 is the no-effect control and ±100 the full control effect; potency means the concentration at half of the fitted maximal effect. The list is partial; count on the stated rates, not on these rows.

canonical_smiles | 2A StopGo | RE007 growth inh
O=C(CSc1nnc(-c2cccc(Br)c2)o1)NCC1CCCO1 (stereo not drawn) | -11% | -14%
CC(=O)N[C@H]1[C@H]([C@H](O)[C@H](O)CO)O[C@](O)(C(=O)O)C[C@@H]1O | -14% | -20%
CCOC(=O)[C@]12CCC=C1N(Cc1ccc(Cl)cc1Cl)C(=O)[C@H](CC(=O)NCc1cccs1)C2 | 5% | 20%
COCCNC(=O)C1CCCN(Cc2ccccc2)CC1 (stereo not drawn) | -13% | 24%
Cc1cc(C)c2c(=O)n3c(nc2c1)C(CC(C)C)NC(=O)c1cc2ccccc2cc1-3 (stereo not drawn) | ? | -23%
CN(Cc1ccccc1)C(=O)c1ccc(NC(=O)Cc2ccc(NC(=O)C3CCN(C(=O)C4CCCCC4)CC3)cc2)cc1 | -28% | -6%
CC1(C)S[C@@H]2[C@H](NC(=O)COc3ccccc3)C(=O)N2C1C(=O)OCC1CCCCC1 (stereo partly drawn) | -14% | 5%
Cc1noc(C)c1NC(=O)N(C)C[C@@H]1Oc2ncc(Br)cc2C(=O)N([C@H](C)CO)C[C@@H]1C | -5% | -10%
CC(C)Nc1nc(NCCOc2ccccc2Cl)c2sc(-c3ccccc3)cc2n1 | ? | -6%
O=C(NC1CCCC1)C1C(c2ccc(C(F)(F)F)cc2)=Nc2ccccc2N1C(=O)c1ccco1 (stereo not drawn) | 59%[activator] | -16%
CCNC(=O)C1(C)CCCN(C(=O)c2ccc3ccccc3n2)C1 (stereo not drawn) | -19% | -8%
CCOC(=O)C1(C)CCCN(C(=O)c2cccnc2SC)C1 (stereo not drawn) | -2% | 8%
O=C(Nc1ccc(F)c(Cl)c1)c1cc(C2CCCCN2C(=O)c2ccc(Cl)cc2)on1 (stereo not drawn) | -28% | 5%
C=C[C@H]1CN2CC[C@H]1C[C@@H]2[C@@H](O)c1ccnc2ccccc12 | -8% | 0%
CC(O)(c1cccc(F)c1)c1nc(-c2ccoc2)cs1 (stereo not drawn) | -13% | -1%[18.4 µM]

canonical_smiles | 2A StopGo | RE007 growth inh
CC(=O)NCCNC(=O)C1Cc2c(-c3cccc(NC(C)=O)c3)ccnc2O1 (stereo not drawn) | -18% | 11%
C[C@H](c1ccccc1)N1C[C@H](COCc2ccccc2)Oc2cc(N3CC[C@H](N(C)C)C3)ccc2S1(=O)=O | 16% | -8%
CC(C)n1nnnc1C1c2ccccc2C(=O)N1Cc1ccccc1 (stereo not drawn) | 5% | 18%
N#Cc1cccc(OCCCN2CCC(C(O)(c3ccccc3)c3ccccc3)CC2)c1 | -20% | -20%
Nc1nc2c(ncn2[C@@H]2O[C@H](CNCc3ccc(F)c(N4CCOCC4)c3)[C@@H](O)[C@H]2O)c(=O)[nH]1 | -20% | 20%
O=C(NCc1ccc(F)cc1F)[C@@H]1CCCN1C(=O)[C@@H]1CCCN1C(=O)c1cccc(Cl)c1 | -26% | -3%
CCCCC(O)C1=C[N+](=O)CC=C1 (stereo not drawn) | -15% | 20%
C[C@@H]1CN([C@@H](C)CO)C(=O)CCCn2nncc2CO[C@H]1CN(C)S(=O)(=O)c1ccc(F)cc1 | 28% | 7%
C[C@H](CO)N1C[C@H](C)[C@@H](CN(C)C(=O)Oc2ccccc2)OCc2cnnn2CCCC1=O | -2% | -17%
CC1Cc2nc(SCC(=O)N3CCCCC3)n(C)c(=O)c2S1 (stereo not drawn) | -21% | 16%
C=C[C@@]12CN(C)[C@H]3[C@H]1[C@@]1(C(=O)Nc4ccccc41)C1CC2[C@@H]3CO1 | -14% | 13%[18.4 µM]
CC1(c2nnc(-c3ccc(Cl)cc3)o2)CC(c2cccnc2)=NO1 (stereo not drawn) | -16% | 19%
CCC(=O)N1CCCC(C)(C(=O)Nc2ccc3scnc3c2)C1 (stereo not drawn) | 0% | -14%
CCCCN1C(=O)C(CC(=O)NC2CCCC2)CC(C(=O)N(C)C)=C1C (stereo not drawn) | 0% | 4%
OC(c1ccc(F)c(F)c1)c1ncc(-c2ccccc2F)[nH]1 (stereo not drawn) | 84%[activator] | -19%

canonical_smiles | 2A StopGo | RE007 growth inh
Cc1cn(CC(=O)NCCNc2ccc([N+](=O)[O-])cn2)c(=O)[nH]c1=O | -8% | 2%
CCC(C(=O)Nc1c(C)cccc1C)n1c(-c2ccc(=O)[nH]c2)nc2ccccc21 (stereo not drawn) | 13% | -14%
Clc1nc(-c2ccccc2)ncc1Oc1ccccc1 | 26% | 14%
COCCN(C(=O)COC(=O)C12CC3CC(CC(O)(C3)C1)C2)c1c(N)n(Cc2ccccc2)c(=O)[nH]c1=O | -12% | 1%
O=C(NC1CCCC1)C1C(c2ccccc2)=Nc2ccccc2N1C(=O)c1ccc(C(F)(F)F)cc1 (stereo not drawn) | 9% | ?
COc1ccccc1CNC(=O)c1cc(-c2cc(F)ccc2OC)n[nH]1 | 2% | -8%
CN1OC[C@@H]2CN(Cc3ccc4c(c3)OCO4)[C@H](c3ccc(N4CCCCC4)cc3)C[C@@H]21 | -8% | -18%
Cc1ccc(C(=O)O)cc1NCc1cccnc1 | -9% | 4%
Nc1ncnc2c1ncn2C1OCC(O)C1O (stereo not drawn) | -9% | 5%
Cc1cc(C(=O)N2CCCC(CO)(Cc3ccc(F)cc3F)C2)nn1C (stereo not drawn) | -12% | 0%
CCOC(=O)[C@]12Cc3ccccc3[C@H]1N(Cc1ccccc1)C(=O)c1cc(F)c(F)cc12 | 25µM* | 11%
CCc1ccc(/C=C2\SC(=S)N(CCCC(=O)Nc3cc(C)on3)C2=O)cc1 | 16µM* | -7%
COc1ccc(-c2ccc(CN3C(C(C)C)C(=O)N(Cc4cn(Cc5ccco5)nn4)CCS3(=O)=O)cc2)cc1 (stereo not drawn) | -11% | 16%
C[C@@H]1CCC[C@]2(O[C@@H](CCO)C[C@H](O)[C@H]2O)O1 | -8% | 5%
O=C(CC[C@H]1O[C@@H](n2cnc3c(NC(=O)c4ccccc4)ncnc32)[C@H](O)[C@@H]1O)NCc1cccs1 | -2% | 43%

canonical_smiles | 2A StopGo | RE007 growth inh
CCC(=O)N1Cc2cc(C(=O)Nc3nccs3)nc(-c3cccc(-c4ccccc4OC)c3)c2[C@@H]1CCO | -31% | 18%
CCCCN(C(=O)c1ccccc1Cl)C(CC(C)C)c1nc2ccccc2[nH]1 (stereo not drawn) | -4% | -5%
O=C(Nc1ccc(N2CCOCC2)cc1)c1cccc2c(-c3ccc(F)c(F)c3)coc12 | -17% | -9%
Cc1ccc(S(=O)(=O)N2C[C@@]3(O)Cn4c(=O)ccc(=O)n4C[C@@]3(OC(=O)NCC3CCCCC3)C2)cc1 | -21% | 61%
COC(=O)c1cc(S(=O)(=O)Nc2cccc(-c3ccno3)c2)c[nH]1 | 19% | 2%
Nc1nc2ncccc2cc1C(=O)NC1CCCCC1 | 0% | -23%
Cc1cccc(C)c1NC(=O)C(C1CC1)n1c(=O)c(-c2ccco2)nc2ccccc21 (stereo not drawn) | -2% | -8%
O=C(Nc1cccc(OC(F)(F)F)c1)C1Cc2c(-c3cccc(F)c3)ccnc2O1 (stereo not drawn) | -10% | -9%[18.4 µM]
CC(C1SC(=S)NC1=O)C1SC(=S)NC1=O (stereo not drawn) | -21% | -21%
COc1cc(CNC(=O)c2cc(-c3cc(OC)ccc3Cl)n[nH]2)cc(OC)c1 | -17% | 8%
CC(=O)c1ccc(-c2cnc3c(NC=O)cc(-c4ccc(C(=O)NC5CC5)cc4)cn23)cc1 | -24% | 0%[18.4 µM]
O=C(O)CC(c1ccccc1)c1ccc2c(c1)OCO2 (stereo not drawn) | -23% | -9%
CCCCOCCCNC(=O)C[C@@H]1C[C@@]2(C(=O)OCC)CCC=C2N(CCC2=CCCCC2)C1=O | -11% | 5%
COc1cc(C(=O)C(=O)N2CCN(c3ccc(C)cc3)CC2)cc2ccccc12 | -29% | -16%
O=C(/C=C/[C@H]1O[C@@H](n2ccc(=O)[nH]c2=O)[C@H](O)[C@@H]1O)NCc1cccs1 | -9% | 4%

canonical_smiles | 2A StopGo | RE007 growth inh
Cc1ccc(S(=O)(=O)N2C[C@H]3[C@H]4C(=O)N(c5ccccc5)C(=O)[C@H]4CC(=O)[C@H]3[C@@H]2c2ccccc2F)cc1 | -1% | 7%
CC1=CC(C)C(=O)N(CCN2CCOCC2)C(C)=C1 (stereo not drawn) | -18% | -13%
COCCNC(=S)N(C)[C@H]1C[C@H]2c3cc(Oc4ccccc4C)ccc3CCN2C(=O)[C@H]1[C@H](C)O | -15% | 6%
CC(C)(C)OC(=O)N(CCc1ccccc1)Cc1ccc(OCc2cccc(NC(=O)C3CCC3)c2)cc1 | ? | -6%
CCC(C)C(CO)NCCCn1cnc2c(SC)ncnc21 (stereo not drawn) | -14% | -24%
CC1(C(=O)NS(=O)(=O)c2ccc(Cl)cc2)CCN1C(=O)c1ccco1 (stereo not drawn) | -13% | -11%
O=C(C[C@H]1C=C[C@@H](NS(=O)(=O)c2ccccc2)[C@@H](CO)O1)NCc1ccc(Cl)c(Cl)c1 | -15% | -12%
Cc1nc2ccc(C(=O)N(C)Cc3ccco3)cn2c1N(C)C(=O)CCc1ccccc1 | 10% | 1%
Nc1ccc(N2N=C(N3CCCC3)CC2=O)cc1 | 0% | -3%
O=C1NCN(c2ccccc2)C12CCN(C(c1ccnc3ccccc13)c1nnnn1-c1ccc3c(c1)OCCO3)CC2 (stereo not drawn) | -9% | -3%
COc1ccc(NC(=O)C2c3ccccc3OCC(=O)N2Cc2ccc3c(c2)OCO3)cc1 (stereo not drawn) | -5% | -6%
COc1ccc(CCNC(=O)c2ccnc(C(C)(C)C)c2)cc1OC | -23% | -4%
O=C(Nc1ccc2ccccc2c1)C(c1ccccc1)n1c(=O)c(-c2cc3ccccc3[nH]2)nc2ccccc21 (stereo not drawn) | 20% | -4%
CCCCn1nnnc1C1(C)CCC(=O)N1CCc1ccccc1F (stereo not drawn) | -5% | 2%
COCc1cccc(-c2csc(C(NC(C)=O)c3ccc(F)c(F)c3)n2)c1 (stereo not drawn) | -11% | 21%

canonical_smiles | 2A StopGo | RE007 growth inh
CC(C)C[C@H]1CN(CCCC[C@H]2CNC(=O)C(=O)N2CC2CCCCC2)C(=O)C(=O)N1CCC1CCCCC1 | ? | 12%
CC(C)NC(=O)CN1CCN(C(c2ccnc3ccccc23)c2nnnn2-c2ccc3c(c2)OCCO3)CC1 (stereo not drawn) | -13% | -3%
Cc1c(C(=O)NCc2cccc(C(F)(F)F)c2)sc(=O)n1Cc1ccc(F)cc1 | -17% | -15%[18.4 µM]
CCOC(=O)C1(C)CCCN(C(=O)c2cc(C)on2)C1 (stereo not drawn) | 9% | 2%
CCN(Cc1ccccc1)c1cc2c(c3c1ccn3C)C1CCC2O1 (stereo not drawn) | -22% | -24%
CCCCCCCCN1C(=O)[C@H](CC(=O)NCc2ccc(OC)c(OC)c2)C[C@@]2(C(=O)OCC)CCCC=C12 | -17% | 1%
Brc1nc(-c2ccccc2)nc(-c2ccccc2)c1Br | ? | -20%
Cc1ccc(C(=O)N2CCc3ccccc32)cc1C | 82%[activator] | -16%
CCN(c1ccccc1)S(=O)(=O)c1cccc(C(=O)NCC(c2ccc(OC)cc2)N2CCCCC2)c1 (stereo not drawn) | -11% | 5%
Cc1noc(C)c1-c1ccc(C(=O)Nc2cccc(NS(C)(=O)=O)c2)c2occc12 | -1% | 1%[18.4 µM]
OCC(O)[C@@H](O[C@H]1O[C@H](CO)[C@@H](O)[C@H](O)[C@H]1O)[C@H](O)[C@@H](O)CO (stereo partly drawn) | -3% | 23%[18.4 µM]
CCOc1ccc(-c2nc(CSCC(=O)NC3CCN(Cc4ccccc4)CC3)c(C)o2)cc1 | ? | -12%
COCCCN1C(=O)C(CC(=O)NCCc2ccccn2)CC(C(=O)N(C(C)C)C(C)C)=C1C (stereo not drawn) | -6% | -10%
COc1ccc(S(=O)(=O)N(C)C[C@H]2Oc3ccc(NS(=O)(=O)c4cccs4)cc3C(=O)N([C@H](C)CO)C[C@@H]2C)cc1 | 6% | 7%
CC(C)(C)OC(=O)N1C(=O)[C@](OC(=O)c2ccccc2)(c2ccccc2)c2cccc(F)c21 | -20% | 4%
CC(C)(C)NC(=O)C(c1cc2ccccc2o1)n1c(=O)c(-c2ccco2)nc2ccccc21 (stereo not drawn) | 28% | -8%
COCOc1cccc(CN2CCC2(C)C(=O)Nc2ccc(C)cc2)c1 (stereo not drawn) | 0% | -22%

Some of the entries so far, as labelled records:
Cc1ccc(S(=O)(=O)N2C[C@H]3[C@H]4C(=O)N(c5ccccc5)C(=O)[C@H]4CC(=O)[C@H]3[C@@H]2c2ccccc2F)cc1
  2A StopGo: -1%
  RE007 growth inh: 7%

CCOC(=O)[C@]12Cc3ccccc3[C@H]1N(Cc1ccccc1)C(=O)c1cc(F)c(F)cc12
  2A StopGo: 25µM*
  RE007 growth inh: 11%

C[C@H](CO)N1C[C@H](C)[C@@H](CN(C)C(=O)Oc2ccccc2)OCc2cnnn2CCCC1=O
  2A StopGo: -2%
  RE007 growth inh: -17%

COCOc1cccc(CN2CCC2(C)C(=O)Nc2ccc(C)cc2)c1 (stereo not drawn)
  2A StopGo: 0%
  RE007 growth inh: -22%
